MLL AF4-AF9 inh: inhibitors of AF4 peptide binding to AF9, primary screen, biochemical, AlphaScreen, biotin-AF4 peptide, FLAG-AF9, single point; Protein AF-9 (Homo sapiens), P42568; inhibition, % at 10 µM; 350,000 compounds, 0.47% hits; AID 651704, 2012;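 active = every replicate reaching a set inhibition limit, whatever the replicate mean, cut at about 25% in these data; inconclusive = mean inhibition reaches that limit but some replicates miss it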;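 note: 0% = plate neutral control median and 100% = total signal loss; the record names both 10 and 1 µM as test concentration; the first replicate is given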
Target sequence (P42568 whole entry, looked up): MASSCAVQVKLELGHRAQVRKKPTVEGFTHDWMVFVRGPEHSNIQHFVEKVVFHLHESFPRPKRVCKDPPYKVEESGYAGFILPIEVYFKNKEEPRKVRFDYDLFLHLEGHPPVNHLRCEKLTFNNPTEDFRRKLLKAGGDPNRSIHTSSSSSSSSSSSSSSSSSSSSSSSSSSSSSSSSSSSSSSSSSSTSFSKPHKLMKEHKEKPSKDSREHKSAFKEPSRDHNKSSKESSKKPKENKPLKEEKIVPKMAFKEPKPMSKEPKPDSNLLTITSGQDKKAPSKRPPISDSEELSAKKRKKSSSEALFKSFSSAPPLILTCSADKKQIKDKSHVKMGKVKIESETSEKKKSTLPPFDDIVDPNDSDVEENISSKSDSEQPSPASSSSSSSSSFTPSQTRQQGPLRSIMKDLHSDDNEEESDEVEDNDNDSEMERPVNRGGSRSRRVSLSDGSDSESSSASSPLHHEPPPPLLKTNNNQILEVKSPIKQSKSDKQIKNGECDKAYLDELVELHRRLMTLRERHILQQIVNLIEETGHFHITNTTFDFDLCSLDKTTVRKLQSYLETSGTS
Beta apoptosis: inhibitors of cytokine-induced beta cell apoptosis, primary screen, luminescence | INS-1E cytokine-induced death, ATP luminescence, 48 h; percent of positive-control rescue, neutral wells zero | protection from apoptosis, % (test concentration not listed) | 300,000 compounds, 0.8% hits | AID 435005, 2010;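 active = all replicates at 75% or more, or half of them and the mean; inconclusive = half reach 75% but not the mean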;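 note: 0% = cytokine-treated negative control wells and 100% = positive control rescue; higher means more ATP so stronger rescue from cytokine killing; wells of about 40 µL received 100 nL stock; the first replicate is given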
ALR inh: inhibitors of human ALR sulfhydryl oxidase, primary screen, biochemical, H2O2 detection, HRP-luminol luminescence, single point; FAD-linked sulfhydryl oxidase ALR (Homo sapiens), P55789; purified ALR, DTT oxidation; inhibition, % (concentration not given with the values); 290,000 compounds, 3.8% hits;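 active = mean and each replicate at 75% or more; inconclusive = only one of the two met; inactive = neither met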;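 note: stock transfer was 7.5 nL into about 7.5 µL; 0% = neutral wells and 100% = wells with inactivated enzyme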
Target sequence (P55789 whole entry, looked up): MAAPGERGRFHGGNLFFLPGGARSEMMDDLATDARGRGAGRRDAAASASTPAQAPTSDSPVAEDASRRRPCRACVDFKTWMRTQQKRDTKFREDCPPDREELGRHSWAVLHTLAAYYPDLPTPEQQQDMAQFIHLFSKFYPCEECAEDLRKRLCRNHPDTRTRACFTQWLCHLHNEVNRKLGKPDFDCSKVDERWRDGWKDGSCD
FGF22 binding: binders of human FGF22 protein, primary screen, FGF22 synaptogenesis inhibitor project, biophysical, thermal shift, single point; Fibroblast growth factor 22 (Homo sapiens), Q9HCT0; recombinant FGF22 thermal shift, SYPRO orange fluorescence; percent of sucrose octasulfate shift, DMSO zero; calls only at 9.99 µM; 340,000 compounds, 1.5% hits;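 active = melting point raised past a set limit in the mean and every replicate; inconclusive = no clear call; three in four hits are not shown here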
Target sequence (Q9HCT0 whole entry, looked up): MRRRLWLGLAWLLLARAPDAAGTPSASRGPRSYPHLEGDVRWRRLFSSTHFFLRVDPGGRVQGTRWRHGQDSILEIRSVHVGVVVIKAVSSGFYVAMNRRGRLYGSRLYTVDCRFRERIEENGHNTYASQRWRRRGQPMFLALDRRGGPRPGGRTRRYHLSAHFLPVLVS
T cruzi repl: inhibitors of intracellular T. cruzi growth, primary screen, luminescence, NIH3T3 host cells. T. cruzi beta-gal in NIH3T3, 90 h. inhibition, % (concentration not given with the values). 300,000 compounds, 1.4% hits;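 active = mean inhibition across valid replicates above about 55%, limit read from the data; inconclusive = mean below that limit but half or more replicates reach it; inactive = mean below it, under half of replicates reach it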;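 note: signal also drops with host cell toxicity which is not excluded here; 0% = plate median of DMSO wells and 100% = zero luminescence signal; higher percent means less beta-gal luminescence so fewer parasites; stock transfer was 50 nL into about 50 µL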
Calb FLC: C. albicans growth inhibition with fluconazole, primary screen, CaCi-2 strain, Alamar Blue fluorescence | C. albicans CaCi-2 (fluconazole-resistant clinical isolate) + fluconazole, 48 h | growth inhibition, % (concentration not given with the values) | 300,000 compounds, 0.57% hits | AID 1979, 2009;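 active = most replicates above 75%; inconclusive = exactly half above 75%; inactive = most below 75%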;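 note: all wells also contain fluconazole at 8 µg/ml as a sub-toxic cotreatment; 0% = median of DMSO wells and 100% = median of geldanamycin control wells; wells of about 8 µL received 7.5 nL stock; the first replicate is given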
RanGTP-Imp inh: inhibitors of RanGTP-importin-beta interaction, primary screen, biochemical, FRET, CFP-Ran, YFP-importin-beta, homogeneous | cell-free CFP-Ran/YFP-importin-beta FRET ratio | inhibition, % (concentration not given with the values) | Ran GTPase (GTP-bound) - importin-beta complex | 300,000 compounds, 1.1% hits;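 active = most replicates above 15%; inconclusive = exactly half above 15%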;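 note: 0% = DMSO wells and 100% = Ran loaded with GDP instead of GTP; wells of about 40 µL received 100 nL stock; the first replicate is given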
rRNA inh HTS: reduced GFP signal of wild-type E. coli, primary screen, bacterial rRNA inhibitor project, GFP/RFP fluorescence, OD600, single point. 350,000 compounds, 1.6% hits. AID 720706, 2013. E. coli WT GFP vs humanized-ribosome RFP mutants, 24 h; hits give low values; DMSO median 0, no signal -100. GFP signal change (wild-type ribosome), % (test concentration not listed);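 active = significant combined selectivity score with lowered wild-type GFP, culture density cut under 30%, mutant RFP and density less affected; inactive = any of these conditions unmet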; note: one replicate is shown; some compounds called inactive have numbers as strong as hits
rRNA inh HTS OD600: further read-out of rRNA inh HTS, marked with its call; OD600 change, %; measured here: OD600 growth;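 optical density of the mix in the first replicate; 0 = DMSO median and -100 = no signal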
rRNA inh HTS RFP: second read-out of rRNA inh HTS, no call of its own (marks repeat the call); RFP signal change, %; measured here: RFP humanized mutant strains;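 first replicate; 0 = DMSO median and -100 = no signal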
* hit, by the source's call; i = inactive; ? = inconclusive; . = not tested or not shown. Some of the compounds tested; count on the stated rates, not on these rows.

SMILES	MLL AF4-AF9 inh	Beta apoptosis	ALR inh	FGF22 binding	T cruzi repl	Calb FLC	RanGTP-Imp inh	rRNA inh HTS	rRNA inh HTS OD600	rRNA inh HTS RFP
CCC(=O)c1ccc(OCC(=O)Nc2cccc(S(=O)(=O)N(C)c3ccccc3)c2)cc1	-2.1	-1	16	i	.	.	.	-18	-15	-1.3
COc1ccc(C(=O)NCC(C)NC(=O)c2ccc(OC)c(OC)c2)cc1OC (stereo not drawn)	-0.6	-2	-5	i	-3	10	7.8	1	8	-0.4
CC(=O)Nc1c(O)nc(SCC(=O)Nc2sc3c(c2C#N)CCCCCC3)[nH]c1=O	.	-1	98*	.	-14	-3	4.0	.	.	.
COc1ccc(CCNC(=O)C/C(C)=N/NC(=O)C2CCCCC2)cc1OC	0.9	1	-9	i	6	-1	?	7	7	-1.1
O=C(Nc1ccccc1)c1ncoc1-c1ccc(Cl)cc1	1.3	-5	-6	i	.	4	-4.6	12	14	2.0
O=[N+]([O-])c1cccc2ncccc12	-3.7	-2	-4	i	9	0	2.9	8	12	1.6
CS(=O)(=O)N(CC(=O)NCCSC1CCCCC1)c1ccc2c(c1)OCO2	.	0	1	.	7	-5	3.4	.	.	.
Cc1ccc(S(=O)(=O)N2CCC(C(=O)N3CCC[C@H]3C(=O)NCc3ccccc3)CC2)cc1	.	0	-23	.	-2	-23	1.0	.	.	.
O=C(NCN1C(=O)C2C3C=CC(C3)C2C1=O)OC1CCCCC1 (stereo not drawn)	.	0	-5	.	-7	6	1.0	.	.	.
Cc1ccc(S(=O)(=O)N2CCC[C@H]2C(=O)Nc2ccccc2Cl)cc1	-1.8	5	-7	i	.	.	.	-12	-21	-1.4
CSc1ncccc1C(=O)Nc1nc2c(C)cccc2s1	-2.0	14	0	i	-8	3	-5.0	-2	10	1.9
O=C(NCCNC(=O)c1ccccn1)c1ccc(F)cc1	-2.1	1	-6	.	1	-2	2.6	7	4	-7.1
Cc1cccc(C(=O)Nc2ccccc2SCC(=O)Nc2ccc(C)c(Cl)c2)c1	.	.	-2	.	17	0	0.6	.	.	.
O=C(Nc1ncnc2sc3c(c12)CCCCC3)c1ccccc1	.	-7	-5	.	2	18	-1.3	.	.	.
CCCOc1ccc(-c2csc3nc[nH]c(=O)c23)cc1	-2.2	5	1	i	-3	41	5.9	-5	-1	-0.5
Cc1ccc(C)c(NC(=O)CNC(=O)N2CC(=O)Nc3ccccc32)c1	2.8	-1	12	i	-3	-4	0.0	-1	0	-1.6
CCCCn1c(N)c(N(CCOC)C(=O)c2ccc(N3CCCC3)c([N+](=O)[O-])c2)c(=O)[nH]c1=O	1.4	.	0	i	-12	-7	-3.7	4	6	-1.4
CCOc1ccc(NC(=S)c2ccncc2)cc1	.	9	7	.	4	-4	-4.0	.	.	.
CCC1(c2ccccc2)NC(=O)N(CC(=O)Nc2cccc(C#N)c2)C1=O (stereo not drawn)	.	-6	-5	.	-9	11	-0.7	.	.	.
CCOC(=O)C1CCCN(C(=O)CSc2nccn2C)C1 (stereo not drawn)	.	-4	-1	.	5	0	2.5	.	.	.
O=C(CCCCl)Nc1c2c(nn1-c1ccccc1)CSC2	-1.2	1	1	i	2	7	1.8	8	17	-0.1
O=C(CSc1nnc(-c2cccnc2)n1Cc1ccccc1)N1CCOCC1	1.2	3	-3	i	4	8	?	12	-4	-8.7
Cn1c(SCC(=O)Nc2cccc(O)c2)nnc1-c1ccc(S(=O)(=O)N2CCOCC2)cc1	.	-9	17	.	6	2	5.1	.	.	.
CCc1ccc(NC(=O)COC(=O)c2ccc(Cl)c(S(=O)(=O)N3CCCCCC3)c2)cc1	.	3	-16	.	-8	-23	0.4	.	.	.
O=C(NCC(=O)N(Cc1cccs1)C(C(=O)NC1CCCCC1)c1ccco1)c1ccco1 (stereo not drawn)	.	4	-2	.	9	21	1.1	.	.	.

Next entries:
SMILES	MLL AF4-AF9 inh	Beta apoptosis	ALR inh	FGF22 binding	T cruzi repl	Calb FLC	RanGTP-Imp inh	rRNA inh HTS	rRNA inh HTS OD600	rRNA inh HTS RFP
COc1ccccc1CCN=C(N)NS(=O)(=O)c1ccccc1F	1.0	5	-5	i	-9	-3	1.6	-1	2	1.4
C=CCc1c(C)[nH]c2ccc(C)cc2c1=O	.	3	6	.	-23	-7	-3.1	.	.	.
CCCCn1c(=O)c(CCC(=O)OCC(=O)Nc2cc(Cl)ccc2OC)nc2ccccc21	.	2	-3	.	5	0	-2.9	.	.	.
COc1ccc(OCC(=O)Nc2ccccc2OC)cc1	-8.5	-6	-3	.	-6	-7	-0.2	-9	-12	-7.4
COC(=O)NCN1C(=O)C2C3C=CC(C3)C2C1=O (stereo not drawn)	-3.2	1	3	i	-14	-12	-1.5	14	6	0.3
C=CCNC(=O)CN1C(=O)NC(C)(c2ccc(OC)cc2)C1=O (stereo not drawn)	-0.2	-7	-1	i	2	-5	-2.7	6	5	-0.7
CC(=O)OCCN1C(=O)c2cccnc2C1=O	.	0	-3	.	-6	3	-0.1	.	.	.
CCOC(=O)N/N=C\c1ccc(C)s1	3.3	-8	2	i	-9	2	-1.5	11	10	-3.0
CC(C)C(NS(=O)(=O)c1ccc2c(c1)oc(=O)n2C)C(=O)N1CCN(C2CCCCC2)CC1 (stereo not drawn)	.	3	-125	.	0	6	1.8	.	.	.
CN1CCN(NC(=O)C23CC4CC(CC(C4)C2)C3)CC1	-1.0	-3	.	i	46	-49	-11	12	4	-1.3
CN(C(=O)c1ccc(=O)[nH]c1)C1(C(=O)NC2CCCCC2)CCCCC1	.	-1	-4	.	2	6	1.1	.	.	.
COc1cccc(NC(=S)N/N=C2/CCCCc3ccccc32)c1	8.9	.	.	i	50	34	-0.7	5	5	0.9
CCCCn1c(-c2csc3c2CCC(C)C3)n[nH]c1=S (stereo not drawn)	.	-2	11	.	2	-45	-0.6	.	.	.
COC(=O)Nc1ccc(S(=O)(=O)NC2CCCCC2)cc1	0.2	-8	-9	i	-4	-4	-4.0	1	-7	3.4
CC(C)c1ccc(NC(=O)C2C3C=CC4(O3)C2C(=O)N(CCN2CCOCC2)C4C(=O)NC2CCCCC2)cc1 (stereo not drawn)	0.5	-2	-1	i	-12	-4	0.1	7	6	-1.1
NC(=O)c1sc2nc(-c3ccco3)ccc2c1N	.	-4	-14	.	2	-15	-1.1	.	.	.
COc1cc(/C=C/C(=O)NC(C)C)ccc1OCc1ccccc1	.	2	-1	.	-16	10	-0.4	.	.	.
CN(C(=O)CSCC(=O)O)C1CCCCC1	-3.9	-5	.	i	-1	-5	-1.3	.	.	.
CCN1C(C(=O)c2ccccc2)=C(Nc2ccccc2C)c2ccccc2S1(=O)=O	.	1	-3	.	23	16	2.4	.	.	.
Cc1nn(C)c(C(=O)N/N=C/c2cccnc2)c1Cl	-1.6	1	0	i	-3	2	-3.2	15	12	7.5
CCOC(=O)C1=C(C)NC(C)=C(C(=O)OCC)C1C(=O)OCC(=O)N1CCOCC1	3.6	-5	-1	i	.	.	.	8	6	1.0
O=C(CCN1CCN(c2ccccc2)CC1)Nc1cccc(Br)c1	2.1	-8	69	i	-3	4	2.7	-2	-48	-7.6
O=C(CCc1ccccc1)Nc1nnc(-c2ccc3c(c2)CCCC3)o1	-1.7	-8	.	i	-5	12	-2.9	-36	-44	-7.7
COc1cccc(Nc2nc(NCCO)c3ccccc3n2)c1	.	3	-10	.	21	-5	-4.3	.	.	.
CCOn1c(=O)c(-c2ccc(OC)cc2)[n+]([O-])c2ccccc21	.	0	-1	.	0	-4	-2.1	.	.	.

(more compounds)
SMILES	MLL AF4-AF9 inh	Beta apoptosis	ALR inh	FGF22 binding	T cruzi repl	Calb FLC	RanGTP-Imp inh	rRNA inh HTS	rRNA inh HTS OD600	rRNA inh HTS RFP
CC1CCCCC1NC(=O)c1cn(C)c2ccc(S(=O)(=O)N3CCOCC3)cc2c1=O (stereo not drawn)	-12	5	1	i	14	2	-1.3	1	6	-0.2
O=C(CN1CCN(S(=O)(=O)c2cccs2)CC1)NCC1CCCCC1	1.2	-6	.	i	.	.	.	-2	-14	-0.2
CCn1c(CC(=O)Nc2ccccc2)nnc1SCC(=O)Nc1nncs1	-4.0	-5	-3	i	-4	-8	-0.4	7	12	-0.5
O=C(N=C1c2ccccc2CN1c1ccccc1)c1cccc([N+](=O)[O-])c1	.	-1	-2	.	-13	-1	-0.9	.	.	.
CCc1nc(NCCN2CCOCC2)c2oc3ccccc3c2n1	.	0	-3	.	-9	8	?	.	.	.
Cc1cccc(NC(=O)Cn2c(C)c(C#N)c3ccccc32)c1C	.	20	-4	.	-5	-8	5.8	.	.	.
Cc1ccc(/C=N\NC(=O)C2CC(=O)N(c3ccccc3)C2)o1 (stereo not drawn)	.	.	-9	i	-7	0	2.2	9	11	-0.1
S=C(Nc1ccc2c(c1)OCO2)Nc1ccc2c(c1)OCO2	5.2	.	17	i	-15	-1	4.9	17	5	-1.0
COc1ccc(C)c2sc(=NC(=O)c3cccc(N4C(=O)CCC4=O)c3)n(C)c12	-24	17	0	i	42	7	-0.2	-1	9	4.8
Cc1ccc(NC(=O)CNc2ccccc2CN(C)C2CCCCC2)cc1	10	1	-1	i	21	26	0.2	0	-8	-6.2
Cc1nc(Cl)c2c(n1)NC1=C(O2)C(=O)CCC1	-0.6	-1	29	i	-16	1	-1.6	27	3	5.6
Cc1cc(C)n2nc(C(=O)OCC(=O)NCc3ccccc3)nc2n1	-0.2	-2	2	i	.	.	.	18	6	2.3
O=C(O)c1ccc2c(c1)C(=O)N(CCc1ccccc1)C2=O	-0.1	-2	0	i	-3	-5	-2.6	-11	-14	-5.5
O=C(O)c1nn(CC(=O)N2CCN(S(=O)(=O)c3ccc(Cl)cc3)CC2)c(=O)c2ccccc12	-2.2	-2	5	i	-3	-3	1.0	16	4	3.2
O=C(COc1ccccc1Cl)NCc1ccccc1	1.6	.	-16	i	-3	-1	4.2	-11	-8	-10
O=C(NCc1cccs1)C1CCCN1C(=O)Nc1ccccc1 (stereo not drawn)	.	-1	.	.	-12	-7	3.0	.	.	.
O=C(Cn1cnc2c(nnn2Cc2ccccc2)c1=O)N1CCCc2ccccc21	1.9	-5	-1	i	18	3	-0.6	6	9	0.4
COc1ccc(OC)c(-c2csc(NC(=O)Cc3ccc(F)cc3)n2)c1	1.1	.	-8	i	29	-33	0.6	-38	-57	-8.0
CCCN(CCC)CCCNC(=S)Nc1ccc2nc(N3CCN(CC)CC3)cc(C)c2c1	18	-8	.	i	38	-7	0.7	3	8	-6.3
CC(C)c1nnc(NC(=O)C2CCCN2C(=O)Nc2ccccc2[N+](=O)[O-])s1 (stereo not drawn)	-9.6	5	2	.	2	2	-2.1	5	5	2.8
